# Screening results from PubChem.
# LT uptake inh: blocks cellular internalization of anthrax lethal toxin; Potency, µM (titrated, usually from 40 µM), without a hit: at the highest dose activity change, negative = inhibition, usual class: inhibitors; 70,000 compounds, 0.67% hits; Cells, anthrax lethal toxin internalization, FRET ratio (460/530); active = well fitted falling ratio curve with the 530 nm signal flat; inconclusive = other ratio curves, or a change in one channel alone; inactive = flat curves in the ratio and both channels; the % refers to the ratio; note: % is set by controls: 0 for no effect and ±100 for the full control effect; nearly all actives have a fitted effect of over 50% in size; tested in ME-180 cells; beta-lactamase reporter
# Prx2 Sm inh: Schistosoma mansoni Prx2 inhibition. Potency, µM. S. mansoni Prx2 activity coupled to TGR/GSH (TGR is thioredoxin glutathione reductase), NADPH fluorescence loss, qHTS; some inactives read as strong as hits. 65,000 compounds, 0.07% hits; active means full or partial inhibition curve with a strong effect at the top dose; inconclusive means weaker partial or single-point curve; inactive means no accepted curve; note: series up to 57 µM; many of its hits are not listed in these tables
#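 Activity is read as the drop in NADPH fluorescence (365/450 nm), recorded every 30 sec for 8 min after H2O2 addition. Prx2 is coupled to TGR-driven NADPH oxidation through glutathione, in phosphate buffer pH 7.4.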
# Active calls of the source: *; i = inactive; ? = inconclusive; nt = not tested or not shown; & = joins results of further samples; [ ] = remark or other dose. Potency is the fitted concentration of half-maximal effect.
SMILES,LT uptake inh,Prx2 Sm inh
O=C(c1cccc(F)c1)N1CCC[C@@]2(CCN(Cc3ccncc3)C2)C1,8%,>57
Fc1ccc(CSc2nnc(-c3cccnc3)n2Cc2ccco2)cc1,-14%,>57
OC(COCc1cccs1)CN1CCCCCC1 (centres undefined),-6%,>57
COc1ccc(C(=O)N2CCN(c3ccc(C)cc3C)CC2)cc1OC,-16%,>57
C=C(C)Cn1c(Sc2nnc(C)s2)nc2c1c(=O)[nH]c(=O)n2C,0%,>57
Cc1cnc(CNc2ncnc3ccc(-c4ccccc4C)cc23)cn1,-13%,>57
CCOC(=O)Cn1c(=O)oc2cc(S(=O)(=O)Nc3cccc(C)c3)ccc21,?,>57
CS(=O)(=O)N(CC(=O)N1CCCC1)c1ccc(Cl)c(Cl)c1,-9%,nt
c1ccc(-c2nc3cc(Cc4ccc5oc(-c6ccccn6)nc5c4)ccc3o2)nc1,-1%,>57
CC(C)CCNc1nc(N2CCCC2)c2c(c1C#N)CCN(C)C2,14%,>57
CC(C)(Cc1c[nH]c2ccc(Cl)cc12)NCCOc1ccccc1OCC1CC1,?,>57
CC(C)OCC1CO1 (centres undefined),4%,nt
O=C(c1cc2ccccc2oc1=O)N(Cc1ccco1)Cc1cccs1,1%,>57
COc1ccccc1NC(=O)N1CCCC1C(=O)Nc1ccc2c(c1)OCO2 (centres undefined),?,>57
O=C(NC1CCCCCC1)C1CCN(S(=O)(=O)N2CCC3(CC2)OCCO3)CC1,12%,>57
CC1(C)CC(=O)C2=C(C1)OC(N)=C(C#N)C2c1ccsc1 (centres undefined),3%,nt
CC(=O)c1ccc(N2CCCC2)c(F)c1,-22%,nt
CCOC(=O)c1c(C)[nH]c(C(=O)NCc2ccccc2OC)c1C,-15%,>57
C/C(NCc1cccnc1)=C(\C#N)C(=O)NCc1ccccc1,-19%,>57
O=C1NCCCc2c1no[n+]2[O-],-10%,>57
CCCC1(C(=O)OC)NC(c2cc(OC)c(OC)c(OC)c2)C2C(=O)N(CC)C(=O)C21 (centres undefined),-10%,>57
COc1ccc(-c2cc(C(=O)OCC(=O)N3CCCC3)c3ccccc3n2)cc1,0%,>57
CS(=O)(=O)Nc1cccc(-c2ccc3ncnc(N4CCNCC4)c3c2)c1,?,>57
O=C1C2C3C=CC(C3)C2C(=O)N1CN(Cc1ccccc1)CN1C(=O)C2C3C=CC(C3)C2C1=O (centres undefined),?,>57
CCCCOc1ccc(C(=O)CCN2CCCCC2)cc1,?,>57
C=CCN1C(=O)/C(=C2/Sc3ccccc3N2C)SC1=Nc1c(C)n[nH]c1C,-9%,>57
CCCc1cc(C(N)=O)c(NC(=O)c2cc(C)on2)s1,?,>57
COc1ccc2[nH]c(=O)c(CN(C(=O)c3ccccn3)c3ccccc3)cc2c1,6%,>57
CCOC(=O)c1c(C)nc2ccccn12,-8%,>57
O=C1CC(c2ccccc2)C(C(=O)O)N1 (centres undefined),1%,>57
CCOC(=O)C1=C(O)/C(=C/N(C)C)N=C1C,-5%,nt
O=C(NCc1ccccc1)N(Cc1cc2cc3c(cc2[nH]c1=O)OCO3)CC1CCCO1 (centres undefined),17%,>57
CC(=O)c1cc2c(cc1NC(=O)CN1CCN(c3cccc(C(F)(F)F)c3)CC1)OCO2,-29%,>57
CCOc1ccccc1NC(=O)CSc1nnc(-c2cnccn2)n1CC,?,>57
CCOC(=O)C(C(=O)OCC)[C@@H]1CS(=O)(=O)C[C@H]1C(C(=O)OCC)C(=O)OCC,nt,>57
COc1cc(C2C(C(=O)c3ccc(C)o3)=C(O)C(=O)N2c2cc(C)on2)ccc1O (centres undefined),8%,>57
Cc1c(C)c2cc(Cl)c(OCc3nn[nH]n3)cc2oc1=O,-12%,>57
Cc1ccc(-n2nc3c(c2NC(=O)c2ccc4c(c2)OCO4)CS(=O)C3)cc1 (centres undefined),19%,>57
CCc1sc(C(=O)NC2CCN(C)CC2)cc1Br,?,>57
Cc1cccc(-n2c(SCC(=O)Nc3nonc3C)nnc2-c2ccoc2C)c1,-12%,>57
c1ccc(-c2cc(N3CCOCC3)nc(-c3ccccc3)n2)cc1,-2%,>57
O=C(CSc1nnc(C2COc3ccccc3O2)o1)N1CCCCC1 (centres undefined),-4%,>57
Cc1cccc2cc(C(c3nnnn3C3CCCC3)N3CCOCC3)c(=O)[nH]c12 (centres undefined),9%,>57
CN1CCC2(CC1)CCN(C(=O)c1ccncc1)CC2,0%,>57
CN(C)CCCN1c2ccccc2Sc2cnccc21,-3%[8 µM],i
CC(C)c1[nH]nc2c1C(c1cccc(OC(=O)N3CCOCC3)c1)C(C#N)=C(N)O2 (centres undefined),23%,>57
CCOC(=O)c1oc2ccccc2c1NC(=O)COC,-3%,>57
Cc1cc(C)nc(SCCc2cccc[n+]2C)n1,-8%[8 µM],?
N#C/C(=C\c1ccc(O)c(O)c1)C(=O)OCCc1cccs1,?,>11
COC(=O)Cn1c(=NC(=O)CSCC(=O)NC2CCCCC2)sc2cc(OC)ccc21,-20%,>57
O=C(c1ccccc1)N1CCN(C2CC(=O)N(CCc3ccccc3)C2=O)CC1 (centres undefined),-13%,nt
C#C[C@H](N)CCC(=O)O,0%,>57
CC(C)=CCSc1nnc([C@@H](N)Cc2c[nH]c3ccccc23)o1,-6%,>57
Cc1cc2c(c(=O)o1)[C@H](O)[C@H]1O[C@@H]1C2=O,?,nt
CC(=O)c1cccc(OCC(O)CN2CC=C(c3ccccc3)CC2)c1 (centres undefined),-26%,>57
CC(C)CCNC(=O)c1cnn2c(C(F)(F)F)cc(-c3ccco3)nc12,-30%,>57
Cn1cccc1C(=O)N1CCC2(CCN(Cc3ccncc3)CC2)CC1,?,>57
O=C(NCc1ccco1)Nc1ccc2snnc2c1,-20%,nt
CSc1nc(C)c2c(n1)OC(CN1C(=O)c3ccccc3C1=O)C2 (centres undefined),-5%,nt
COC(=O)C1=C(C)N(CCc2ccc(OC)cc2)C(=O)C1,-11%,nt
# (cont.)
SMILES,LT uptake inh,Prx2 Sm inh
CC(=O)c1c(C)[nH]c(C(=O)N2CCCCCC2)c1C,-11%,>57
O=C(c1ccc2c(c1)OCCCO2)c1cccs1,0%,>57
CCOc1ccc(CCNC(=O)C2CCN(C(=O)N(C)C)CC2)cc1OCC,8%,>57
O=C1c2ccccc2C(=O)N1CCc1nc(-c2cccnc2)no1,14%,>57
CN1CCN(C(=O)c2sc(=S)n(-c3ccccc3)c2N)CC1,nt,>57
CCOc1ccc(C(=O)Cc2ccc3oc(C(=O)O)cc3c2)c(O)c1,?,>57
O=C(NCCN1CCN(C(=O)c2cc3ccccc3oc2=O)CC1)c1cc2ccccc2oc1=O,11%,>57
Cc1noc(NS(=O)(=O)c2ccc(NC(=O)CSc3ncccn3)cc2)c1C,4%,6.8*
CC1CC(C)CN(c2ncnc3c2cnn3Cc2ccc(Cl)cc2)C1 (centres undefined),-6%,>57
Cc1cc(C(=O)OCC(=O)Nc2cc(C)on2)c2ccccc2n1,-12%,>57
COc1ccc2c(Cl)c(-c3nnc4n3CCCCC4)sc2c1,-12%,>57
CC(C)[C@H](Sc1nc(N)nc2nc[nH]c12)C(=O)O,-5%[8 µM],>57
O=C(NCc1ccc2c(c1)OCO2)C1CC(=O)N(C2CCCCCC2)C1 (centres undefined),?,>57
CC1CC(C)CN(C(=O)CSc2nnc(-c3ccc(F)cc3)o2)C1 (centres undefined),-11%,>57
CCOC(=O)c1oc2ccc(S(=O)(=O)N3CCOCC3)cc2c1C,0%,>57
c1ccc(CNc2cc(-c3cccnc3)ncn2)cc1,-11%,>57
COc1cc(C(=O)NCc2cn3ccccc3n2)cc(OC)c1OC,-7%,>57
CC(C)(CO)Cc1cc(C(C)(C)C)c(O)c(C(C)(C)C)c1,?,>57&>57
Cc1ccc(S(=O)(=O)NCc2ccco2)cc1C,?,nt
C=CCn1c(COc2ccc(F)cc2)nnc1SCC(=O)NC(=O)NCc1ccco1,0%,>57
O=C1C2C3C=CC([C@@H]2C(=O)N1c1nccs1)C31CC1 (some centres undefined),-6%,>57
CCOC(=O)c1c(N)ssc1=S,-22%,nt
CC(C)N(Cc1nc(-c2ccc(Cl)cc2)no1)C(=O)c1cccs1,15%,>57
O=C1CCCc2nc(NCc3ccco3)ncc21,-9%,>57
Cc1ccc(CNC(=O)c2cc3c(-c4ccc(Cl)cc4)nn(C)c3s2)o1,-8%,>57
O=C(Nc1cccc(-c2cn3ccsc3n2)c1)c1ccccc1,?,>57
N#Cc1c(NC(=O)CSc2nnnn2C2CCCCC2)sc2c1CCCC2,-4%,>57
O=C(COc1ccc(Cl)cc1)Nc1nnc(-c2ccc3c(c2)CCCC3)o1,-8%,>57
O=C(c1cccc(F)c1)N1CCC[C@@]2(CCN(c3ncccn3)C2)C1,4%,>57
CCOC(=O)c1c(N)sc2c(OC)c(Br)ccc12,?,nt
C#CCN[C@@H](C)Cc1ccccc1,-16%,>57
CCOc1ccc(C(=O)CCN2CCCCCC2)cc1,5%,>57
CC(C)(C[C@@]1(C)NC(=O)NC1=O)OCc1ccccc1,-2%[8 µM],>57
COc1ccccc1-c1ccc(=O)n(CC(=O)NC(C)(C)C)n1,-16%,>57
C=CCN1CC[C@]23c4c5ccc(O)c4O[C@@H]2/C(=N/NC(=O)c2ccccc2)CC[C@@]3(O)[C@H]1C5,?,>57
Cc1nn(C)c(C)c1S(=O)(=O)N(CC(=O)NCCCOC(C)C)c1ccc(C(C)C)cc1,5%,>57
Cc1c(C)n(CC(O)CN2CCCCCC2)c2ccccc12 (centres undefined),-1%,>57
COCc1[nH]nc2c1C(c1ccsc1)C(C#N)=C(N)O2 (centres undefined),8%,>57
CC(=O)c1ccc(NC(=O)CN2C(=O)COc3ccc(Cl)cc32)cc1,?,>57
C[C@H]1CCC[C@H](O)CCCCCc2cc(O)cc(O)c2C(=O)O1,9%&-12%,>57
CCOc1ccc(-c2n[nH]c(C)c2Oc2ccc(OC)cc2)c(O)c1,?,>57
COC(=O)C1=C(C)N(C)C(C)=C(C(=O)OC)C1c1ccccn1,-6%,nt
Cc1ccc(SCc2[nH]nc3c2C(c2ccco2)C(C#N)=C(N)O3)cc1 (centres undefined),?,>57
CN1CCN(c2nc3c(c(=O)[nH]c(=O)n3C)n2CCSc2ncccn2)CC1,?,>57
CCCCCCCCCCC/C=C\C(C)(C)/C=C\CCCC(=O)O,13%,>57
C=C1N2CCC(CC2)C1(O)c1ccccc1C (centres undefined),-21%,>57
Cc1c(NC(=O)Nc2ccc(Cl)cc2)c(=O)n(-c2ccccc2)n1C,-8%,nt
CCn1c(=O)c(C(C)=O)nc2ccccc21,-4%,>57
CC(C)(C)OC(=O)N1CCCC1C(=O)O (centres undefined),6%,>57
COc1ccccc1-n1cnc(N)c1C(C)=O,?,>57
CCC(=O)c1cc2c(cc1NC(=O)c1cccs1)OCCO2,?,nt
O=C(NC1CCCCC1)c1cccc(S(=O)(=O)N2CCOCC2)c1,8%,nt
COc1ccccc1Cc1noc(COc2cccc(C)c2C)n1,?,>57
COC(=O)c1ccc(CSc2nc3c(c(=O)n2-c2ccc(Br)cc2)SCC3)o1,?,>57
O=S(=O)(c1cccs1)N1CCCc2ccccc21,-28%,nt
O=S(=O)(O)c1ccc(NN(c2c(O)ccc3ccccc23)S(=O)(=O)O)cc1,-8%[8 µM],>57
CCCCOC(=O)CSC1=C(C#N)C(c2ccccc2OCC)C(C#N)C(=O)N1 (centres undefined),15%,>57
CCOc1ccc(NC(=O)Nc2cc(C)on2)cc1,9%,>57
CCc1cc(C(=O)Cc2nc3ccccc3[nH]2)c(O)cc1O,9%,>57
Clc1ccccc1-c1cncnc1NCc1cccs1,-7%,>11
Nc1nc(Nc2ccccc2Br)nc(C(F)(F)F)n1,-17%,>57
CNc1ncnc2ccc(-c3cccc(OC)c3)cc12,-26%,>57

# Among those listed so far, these have a furan ring, fused or not.
SMILES,LT uptake inh,Prx2 Sm inh
Fc1ccc(CSc2nnc(-c3cccnc3)n2Cc2ccco2)cc1,-14%,>57
O=C(c1cc2ccccc2oc1=O)N(Cc1ccco1)Cc1cccs1,1%,>57
COc1cc(C2C(C(=O)c3ccc(C)o3)=C(O)C(=O)N2c2cc(C)on2)ccc1O (centres undefined),8%,>57
Cc1cccc(-n2c(SCC(=O)Nc3nonc3C)nnc2-c2ccoc2C)c1,-12%,>57
CCOC(=O)c1oc2ccccc2c1NC(=O)COC,-3%,>57
CC(C)CCNC(=O)c1cnn2c(C(F)(F)F)cc(-c3ccco3)nc12,-30%,>57
O=C(NCc1ccco1)Nc1ccc2snnc2c1,-20%,nt
CCOc1ccc(C(=O)Cc2ccc3oc(C(=O)O)cc3c2)c(O)c1,?,>57
CCOC(=O)c1oc2ccc(S(=O)(=O)N3CCOCC3)cc2c1C,0%,>57
Cc1ccc(S(=O)(=O)NCc2ccco2)cc1C,?,nt
C=CCn1c(COc2ccc(F)cc2)nnc1SCC(=O)NC(=O)NCc1ccco1,0%,>57
O=C1CCCc2nc(NCc3ccco3)ncc21,-9%,>57
Cc1ccc(CNC(=O)c2cc3c(-c4ccc(Cl)cc4)nn(C)c3s2)o1,-8%,>57
Cc1ccc(SCc2[nH]nc3c2C(c2ccco2)C(C#N)=C(N)O3)cc1 (centres undefined),?,>57
COC(=O)c1ccc(CSc2nc3c(c(=O)n2-c2ccc(Br)cc2)SCC3)o1,?,>57

# Only part of the results is shown; the hit share may differ from the screen's.
